Screening results as filed in PubChem BioAssay.
Sa helicase inh: S. aureus DNA helicase inhibition; purified S. aureus helicase, fluorescence unwinding assay; about half of the hits fall short of the stated cut; inhibition, %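 (tested at about 80 µM)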; hit rate 0.05% among 120,000;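 active means both duplicates at 50% or more, or one of them with a favoured structure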;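 further: 0% = mean of negative control wells and 100% = mean of positive control wells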
MgrA-DNA mod: alters Staphylococcus aureus MgrA binding to DNA; hit rate 0.13% among 84,000; inhibition, %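 (about 10 µg/mL by stock and volumes)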; fluorescence polarization;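 active means above 50% in either of two replicates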;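 further: 0% = protein plus DNA without compound and 100% = DNA alone without protein; higher means less MgrA bound to DNA so lower polarization; one replicate is shown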
Starred values were filed as active, the others as inactive; & = joins results of further samples. Not all compounds are listed, so the mix of outcomes need not match the whole.

`CC(O)(c1ccccc1)C(C)(O)c1ccccc1` (stereo not drawn) gave Sa helicase inh -2.0 and MgrA-DNA mod -1.8.
For CC(C(=O)NCc1ccccc1)n1cc(S(=O)(=O)N2CCCC2)ccc1=O (stereo not drawn) the results were Sa helicase inh -6.0.
Screening CC(Oc1ccc(-c2ccccc2)cc1)c1nnc(-c2cccs2)o1 (stereo not drawn) returned Sa helicase inh -6.0.
`CC1(C)OC(=O)C(=CNCCO)C(=O)O1` gave Sa helicase inh 26.0.
Screening CC(Oc1ccccc1)C(=O)NCc1ccco1 (stereo not drawn) returned Sa helicase inh 13.0 and MgrA-DNA mod 3.8.
Screening CCC(C(=O)NCc1ccc(OC)cc1OC)N1C(=O)CSc2ccc(C(C)(C)C)cc21 (stereo not drawn) returned Sa helicase inh 12.0 and MgrA-DNA mod 1.4.
For Cc1cccc(C(C)C)c1NC(=O)CSc1ncnc2[nH]ncc12 the results were Sa helicase inh 6.0.
Screening CC1(C)CC(=O)C=C(SCCS(=O)(=O)c2ccccc2)S1 returned MgrA-DNA mod -0.8.
`O=C(OCCN1C(=O)c2cccc3c(N4CCOCC4)ccc(c23)C1=O)c1cccc([N+](=O)[O-])c1` gave MgrA-DNA mod 0.9.
CC(C)CN(C(=O)C1COc2ccccc2O1)c1c(N)n(CC(C)C)c(=O)[nH]c1=O (stereo not drawn) was read as Sa helicase inh -2.0.
Nc1ccc2c(c1)C1(OCCO1)C(=O)N2 was read as Sa helicase inh 5.0 and MgrA-DNA mod -1.6.
`CCCS(=O)(=O)N1N=C(c2ccc(Cl)cc2)CC1c1ccco1` (stereo not drawn) gave Sa helicase inh -91.0 and MgrA-DNA mod -1.5.
For COc1cccc(-c2csc(-c3ccccn3)n2)c1 the results were Sa helicase inh 2.0.
Screening Cc1ccc(S(=O)(=O)N2CCC[C@H]2C(=O)OCC(=O)N2CCc3ccccc32)cc1 returned Sa helicase inh -8.0.
`Clc1ccc(-c2noc(CN3CCOCC3)n2)cc1` gave MgrA-DNA mod 0.5.
`COc1cc(CCC(C)N)ccc1O` (stereo not drawn) gave MgrA-DNA mod -1.6&1.6&-3.2.
For Cc1nc2nc(COc3ccccc3)[nH]n2c(=O)c1C the results were Sa helicase inh 7.0 and MgrA-DNA mod -0.2.
Screening O=C(CSc1ccccn1)Nc1ccc(Br)cc1 returned MgrA-DNA mod -0.5.
`CC(C)NC(=O)/C(C#N)=C/c1ccc2c(c1)OCCO2` gave Sa helicase inh -12.0.
`c1ccc2cc3cnccc3cc2c1` gave Sa helicase inh 17.0.
CC/C(=C\c1ccccc1)CN1CCCCC1 was read as Sa helicase inh -5.0.
C=C(C)CNCC1OCCc2ccccc21 (stereo not drawn) was read as Sa helicase inh -4.0 and MgrA-DNA mod 2.2.
O=C(NCc1ccco1)C(=S)N1CCOCC1 was read as Sa helicase inh -4.0 and MgrA-DNA mod 23.2.
COc1ccccc1N1CCN(C(=O)CC(C)c2ccccc2)CC1 (stereo not drawn) was read as Sa helicase inh -6.0 and MgrA-DNA mod -2.0.
Screening O=C(Oc1cccc2ccccc12)c1ccccc1Cl returned Sa helicase inh 9.0.
O=C(NCC1COc2ccccc2O1)Nc1ccc(NC(=O)NCC2COc3ccccc3O2)cc1 (stereo not drawn) was read as Sa helicase inh 19.0.
`CS(=O)(=O)/C(C#N)=C/N=S(C)(=O)c1ccsc1` (stereo not drawn) gave MgrA-DNA mod -1.4.
Screening O=C(c1sc2ccccc2c1Cl)N1CCCCC1 returned MgrA-DNA mod -0.1.
For CCCCN1C(=O)c2ccc(C(=O)OCC(=O)Nc3ncc(Cl)cc3Cl)cc2C1=O the results were Sa helicase inh 9.0.
`NCCc1nnc(SCc2ccc(Cl)cc2)o1` gave Sa helicase inh 5.0 and MgrA-DNA mod -0.1.

Reprinted from the part before: 4 compounds; new compounds follow.
`CS(=O)(=O)/C(C#N)=C/N=S(C)(=O)c1ccsc1` (stereo not drawn) gave MgrA-DNA mod -1.4.
Screening O=C(c1sc2ccccc2c1Cl)N1CCCCC1 returned MgrA-DNA mod -0.1.
For CCCCN1C(=O)c2ccc(C(=O)OCC(=O)Nc3ncc(Cl)cc3Cl)cc2C1=O the results were Sa helicase inh 9.0.
`NCCc1nnc(SCc2ccc(Cl)cc2)o1` gave Sa helicase inh 5.0 and MgrA-DNA mod -0.1.
CC1(C)CC(=O)C2=C(C1)N=C1c3ccccc3C(=O)C1C2c1ccc(O)c(O)c1 (stereo not drawn) was read as Sa helicase inh 29.0.
`CCOc1cccc(NC(=O)C2CC(=O)N(/N=C(\C)c3ccc(Br)s3)C(=N)S2)c1` (stereo not drawn) gave Sa helicase inh 12.0 and MgrA-DNA mod 1.5.
`O=C1/C(=C/c2ccc3c(c2)OCO3)CC/C1=C\c1ccc2c(c1)OCO2` gave MgrA-DNA mod -2.3.
Nc1ccc(C(=O)NCC2COc3ccccc3O2)cc1 (stereo not drawn) was read as Sa helicase inh 20.0 and MgrA-DNA mod -0.5.
O=C(Nc1nccs1)c1ccc(N2C(=O)CCC2=O)cc1 was read as Sa helicase inh 1.0 and MgrA-DNA mod 0.3.
`O=C1N(CN2CCCCCC2)c2ccccc2C12OCCO2` gave Sa helicase inh 7.0 and MgrA-DNA mod -4.3.
Screening O=C(CCn1cccc1)NC1CC1 returned Sa helicase inh 2.0.
For CCc1cc2c3c(c(=O)oc2cc1OC)CCCC3 the results were Sa helicase inh -11.0 and MgrA-DNA mod 1.3.
For CCc1cc(=O)oc2c(O)c(O)ccc12 the results were Sa helicase inh 11.0 and MgrA-DNA mod 0.4.
Screening CC(C)c1cc(C(=O)NCc2cccnc2)no1 returned Sa helicase inh 10.0.
For CC1(O)CC(=O)N(c2ccccc2)O1 (stereo not drawn) the results were Sa helicase inh 4.0.
`CC(=O)NC1C(=O)N(Cc2ccccc2)c2c(C)ccc(Cl)c21` (stereo not drawn) gave Sa helicase inh -24.0.
Cc1ccc(C(=O)Nc2nc3ccccc3n3nnnc23)cc1 was read as Sa helicase inh -16.0.
`COc1ccc(C(=O)NCc2cccnc2)cc1C(=O)NCc1cccnc1` gave MgrA-DNA mod 0.4.
CC(=O)N1CCc2cccc(N)c21 was read as MgrA-DNA mod -2.3.
For COc1ccc(OC)c(NC(=O)CCn2cnc3ccccc3c2=O)c1 the results were Sa helicase inh -6.0 and MgrA-DNA mod 1.0.
Cc1cc(C)c(S(=O)(=O)N2CCCC(C(=O)O)C2)c(C)c1 (stereo not drawn) was read as Sa helicase inh -5.0.
`Cc1cc(C)c(C#N)c(Sc2ncnc3c2nnn3Cc2ccccc2)n1` gave MgrA-DNA mod -8.2.
For CCOc1cccc2cc(C(=O)OC)c(=O)oc12 the results were Sa helicase inh 17.0.
For Cc1ccc(C)n1-c1nn(S(=O)(=O)c2ccccc2)c2cccc(F)c12 the results were MgrA-DNA mod -2.6.
Screening CCOC(=O)c1[nH]c(COC(C)=O)c(CC)c1CC returned Sa helicase inh 16.0.
C/C(=N\O)C(=O)Nc1cccc(C(F)(F)F)c1 was read as MgrA-DNA mod -0.2.
Cc1cc(C)n(-c2ncc(S(=O)(=O)c3ccc(Cl)cc3)c(N)n2)n1 was read as MgrA-DNA mod 2.2.
`COc1ccc(-c2cc(C(F)(F)F)nc(SCC(=O)N3CC4(C)CC3CC(C)(C)C4)n2)cc1` (stereo not drawn) gave Sa helicase inh 8.0 and MgrA-DNA mod 0.2.
For CCCn1c2ccccc2c2cnn(CC(=O)NC3CCCC3)c(=O)c21 the results were Sa helicase inh -20.0.
`O=C(c1ccco1)N1N=C(c2ccccc2)CC1c1cc2cc3c(cc2nc1Cl)OCCO3` (stereo not drawn) gave Sa helicase inh 10.0.
`CC(=O)Nc1ccc(S(=O)(=O)Nc2ccc(F)cc2)cc1` gave MgrA-DNA mod -1.4.
For CCC(=O)c1cn(CC(=O)NCc2cccs2)c2ccccc12 the results were Sa helicase inh 1.0.
Screening O=C(CCn1nc(-c2ccc(Cl)cc2)ccc1=O)NCc1cccnc1 returned Sa helicase inh 2.0 and MgrA-DNA mod 0.3.
`CCC(C)OC(=O)CSc1nc2ccccc2s1` (stereo not drawn) gave MgrA-DNA mod -2.4.
For CCN(CC)CCCN the results were Sa helicase inh 1.0.
`CC(=O)NCCSc1nc(-c2cccs2)cc(-c2ccc(F)cc2)c1C#N` gave Sa helicase inh 7.0 and MgrA-DNA mod -3.2.
`CCN(C(=O)Cc1ccc(Cl)cc1)c1ccccc1` gave Sa helicase inh 4.0 and MgrA-DNA mod 4.3.
`CC1CCCCC1NC(=O)CSCC(=O)O` (stereo not drawn) gave Sa helicase inh -5.0.
Screening c1ccc2c(c1)COC(CNC1CCCCC1)OC2 returned Sa helicase inh 16.0 and MgrA-DNA mod -0.7.
For N#Cc1cnn(-c2ccc(C(F)(F)F)cn2)c1N the results were Sa helicase inh -22.0.
`CCOC(=O)Nc1ccc2c(COC(=O)c3cccn3C)cc(=O)oc2c1` gave Sa helicase inh 3.0.
`CCC12CN3CCN(CC(C3)/C1=N\NC(=O)Nc1ccccc1)C2` gave Sa helicase inh -18.0.
For CCOC(=O)C(Nc1cccc(CO)c1)c1ccccc1 (stereo not drawn) the results were Sa helicase inh -19.0.
O=C(O)c1cc2cc([N+](=O)[O-])ccc2oc1=O was read as MgrA-DNA mod -1.3.
For Oc1ccccc1-c1cc(-c2ccc3c(c2)OCCO3)n[nH]1 the results were Sa helicase inh 18.0 and MgrA-DNA mod -2.6.
Screening Cc1cc(OC(C)C(=O)NCC2CCCO2)cc(C)c1Cl (stereo not drawn) returned Sa helicase inh 6.0 and MgrA-DNA mod -1.9.
For O=C1c2ccccc2NC(c2ccccn2)N1CCCN1CCOCC1 (stereo not drawn) the results were Sa helicase inh 17.0.
Screening CC(=O)N(Cc1ccccc1)Cc1cn(-c2ccccc2)nc1-c1cccs1 returned Sa helicase inh 8.0 and MgrA-DNA mod -0.8.
Cc1noc(C)c1S(=O)(=O)NCc1cccs1 was read as MgrA-DNA mod -2.5.
Cc1nsc2c1ccc1sccc12 was read as Sa helicase inh 13.0.
For CNc1nc(-c2ccc3c(c2)CCN3C(=O)C(C)C)cs1 the results were Sa helicase inh -12.0 and MgrA-DNA mod 1.6.
For Cc1[nH]nc(-c2ccc(O)cc2O)c1Oc1ccc(F)cc1 the results were Sa helicase inh -13.0.
`CC(C)CC(NC(=O)C1CCC(C)CC1)C(=O)O` (stereo not drawn) gave Sa helicase inh 14.0.
O=C1/C(=C\NCc2ccccc2)S(=O)(=O)N(Cc2ccc(Cl)cc2)c2ccccc21 was read as Sa helicase inh 15.0 and MgrA-DNA mod 3.0.
For Cc1cc2c(cc1S(=O)(=O)N1CCc3ccccc31)OCC(=O)N2 the results were Sa helicase inh -3.0 and MgrA-DNA mod -0.1.
FC(F)(F)CNCc1ccco1 was read as Sa helicase inh 3.0.
Screening CSc1n[nH]c(-c2ccccc2)n1 returned Sa helicase inh -11.0.
Screening CCN(CC)S(=O)(=O)c1cccc2nsnc12 returned Sa helicase inh 4.0 and MgrA-DNA mod 1.1.
For CCN=C1NN=C(c2ccc(NC(=O)CC)cc2)CS1 the results were Sa helicase inh -14.0.
Screening O=C1C(Sc2ncn[nH]2)=C/C(=N/S(=O)(=O)c2ccc(Cl)cc2)c2ccccc21 returned Sa helicase inh 24.0.
For N/C(=N\OC(=O)Nc1ccc(Cl)cc1)c1ccc(C2SCCS2)cc1 the results were MgrA-DNA mod -2.3.
Cn1c2ccccc2c2[nH]c3ccccc3c21 was read as Sa helicase inh 6.0 and MgrA-DNA mod 2.6.
CCc1nn(CC(=O)NCC2CCCO2)c(=O)c2cc3c(OC)cccc3n12 (stereo not drawn) was read as Sa helicase inh 14.0.
Screening O=C(COC(=O)c1n[nH]c2ccccc12)NCc1ccccc1 returned Sa helicase inh 2.0 and MgrA-DNA mod 2.0.
O=C(OC1CCCCC1=O)c1ccc2c(c1)OCCO2 (stereo not drawn) was read as Sa helicase inh 3.0.
For Cc1cc([S-])c2n(cn[n+]2Cc2ccc(Cl)cc2Cl)n1 the results were Sa helicase inh 6.0 and MgrA-DNA mod -1.4.
COc1cc(OC)c(NC(=O)Nc2noc3c2COc2ccccc2-3)cc1Cl was read as Sa helicase inh -21.0.
For Cc1onc(-c2ccccc2Cl)c1C(=O)NC(=S)N1CCCc2ccccc21 the results were Sa helicase inh -6.0.
`COC(=O)CN1C=C(C(=O)OC)C(c2ccc(F)cc2)C(C(=O)OC)=C1` gave Sa helicase inh 38.0.
COc1ccc(C2C(C(=O)O)c3ccccc3C(=O)N2Cc2ccco2)cc1 (stereo not drawn) was read as MgrA-DNA mod 0.5.
Screening C=CCn1c2ccccc2n2ncnc12 returned Sa helicase inh 8.0.
For CSC(=NCc1c(N(C)C)cccc1N(C)C)NS(=O)(=O)c1ccccc1 the results were MgrA-DNA mod -1.1.
For CC(C)c1ccc(NC(=O)C2=NNC(=O)CC2)cc1 the results were MgrA-DNA mod 3.9.
`O=C1NC(=O)C(C(CC(=O)c2ccccc2)c2ccccc2Br)C(=O)N1` (stereo not drawn) gave Sa helicase inh 20.0 and MgrA-DNA mod 1.8.
Cn1ccnc1Sc1cnc(SCC(=O)c2ccc(Cl)cc2)nc1-c1ccccc1 was read as MgrA-DNA mod 1.9.
Screening Nc1c(C(=O)NCc2ccco2)c2nc3ccccc3nc2n1CCc1ccccc1F returned Sa helicase inh 6.0.
CCCN(CCC)S(=O)(=O)c1nc2nc(C)cc(C)n2n1 was read as Sa helicase inh 6.0.
Screening COc1ccccc1-[n+]1cc([O-])on1 returned Sa helicase inh 4.0 and MgrA-DNA mod 0.7.

Taken from above for reference:
Screening Nc1c(C(=O)NCc2ccco2)c2nc3ccccc3nc2n1CCc1ccccc1F returned Sa helicase inh 6.0.
CCCN(CCC)S(=O)(=O)c1nc2nc(C)cc(C)n2n1 was read as Sa helicase inh 6.0.
Screening COc1ccccc1-[n+]1cc([O-])on1 returned Sa helicase inh 4.0 and MgrA-DNA mod 0.7.
